Screens as filed in PubChem BioAssay.
FGF22 binding – binders of recombinant human FGF22 by thermal shift. SYPRO orange fluorescence; percent of sucrose octasulfate shift, DMSO zero. calls only at 9.99 µM. actives 1.5% (n = 340,000). AID 651658;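 active means melting point raised past a set limit in the mean and every replicate; three in four hits are not shown here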
rRNA inh HTS – selective bacterial rRNA inhibition in E. coli; E. coli WT GFP vs humanized-ribosome RFP mutants, fluorescence, 24 h; hits give low values; DMSO median 0, no signal -100; GFP signal change (wild-type ribosome), % (test concentration not listed); actives 1.6% (n = 350,000); AID 720706;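 active means significant combined selectivity score with lowered wild-type GFP, culture density cut under 30%, mutant RFP and density less affected; inactive means any of these conditions unmet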; further: one replicate is shown; some compounds called inactive have numbers as strong as hits
ALR H2O2 inh – blocks human ALR sulfhydryl oxidase activity; actives 3.8% (n = 290,000); inhibition, % (test concentration not listed); purified ALR, DTT oxidation, H2O2 HRP-luminol luminescence; AID 485317;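 active means mean and each replicate at 75% or more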;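 further: stock transfer was 7.5 nL into about 7.5 µL; 0% = neutral wells and 100% = wells with inactivated enzyme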
Target sequence (P55789 whole entry, looked up): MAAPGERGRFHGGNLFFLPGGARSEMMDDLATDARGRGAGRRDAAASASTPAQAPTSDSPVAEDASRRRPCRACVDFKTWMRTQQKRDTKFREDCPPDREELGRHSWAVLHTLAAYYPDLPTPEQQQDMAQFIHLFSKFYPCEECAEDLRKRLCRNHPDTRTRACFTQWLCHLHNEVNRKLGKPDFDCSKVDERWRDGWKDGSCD
E coli growth – inhibitors of Escherichia coli growth | OD600, 23 h; hits give low values | OD600 absorbance (concentration not given with the values) | actives 0.21% (n = 330,000) | AID 1053175;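 active means OD600 absorbance below the run mean of sample wells minus 3.6 SD, in any replicate, cut at about 0.56 in these data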;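 further: stock transfer was 300 nL into about 60 µL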
HNF4A DNA FP – change in binding of human HNF4 alpha to DNA | actives 0.3% (n = 360,000) | P41235 | AID 1224865 | activity change, % at 10 µM | HNF4a-FITC DNA binding, fluorescence polarization, 1 h; in the data active means activity change above about 30%, passing the limit was not always enough;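 further: controls were the assay level and a saturating level of protein; the project sought stronger binding though the title names inhibitors; some compounds called inactive have numbers as strong as hits; positive values seem to mean higher polarization but the record does not say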
Target sequence (P41235 whole entry, looked up): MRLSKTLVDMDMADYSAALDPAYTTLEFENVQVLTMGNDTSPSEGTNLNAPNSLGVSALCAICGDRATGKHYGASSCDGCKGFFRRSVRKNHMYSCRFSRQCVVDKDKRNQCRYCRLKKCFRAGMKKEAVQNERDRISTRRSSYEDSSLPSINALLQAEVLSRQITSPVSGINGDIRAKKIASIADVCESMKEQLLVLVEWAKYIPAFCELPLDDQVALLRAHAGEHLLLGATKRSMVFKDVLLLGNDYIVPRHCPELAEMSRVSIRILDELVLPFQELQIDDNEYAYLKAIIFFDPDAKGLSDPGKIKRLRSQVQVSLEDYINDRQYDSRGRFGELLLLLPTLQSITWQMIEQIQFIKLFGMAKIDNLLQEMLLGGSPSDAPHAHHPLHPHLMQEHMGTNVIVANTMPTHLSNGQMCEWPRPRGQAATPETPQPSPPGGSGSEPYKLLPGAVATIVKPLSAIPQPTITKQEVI
UCH37 inh – human UCH37 deubiquitinating enzyme inhibition. inhibition, % (concentration not given with the values). actives 0.33% (n = 330,000). purified proteasome/UCH37, Ub-AMC cleavage fluorescence. AID 588478;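 active means mean of two replicates above 20%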;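 further: 0% = compound-free wells with enzyme and 100% = wells lacking proteasome; stock transfer was 100 nL into about 20 µL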
Target sequence (Q9Y5K5 whole entry, looked up): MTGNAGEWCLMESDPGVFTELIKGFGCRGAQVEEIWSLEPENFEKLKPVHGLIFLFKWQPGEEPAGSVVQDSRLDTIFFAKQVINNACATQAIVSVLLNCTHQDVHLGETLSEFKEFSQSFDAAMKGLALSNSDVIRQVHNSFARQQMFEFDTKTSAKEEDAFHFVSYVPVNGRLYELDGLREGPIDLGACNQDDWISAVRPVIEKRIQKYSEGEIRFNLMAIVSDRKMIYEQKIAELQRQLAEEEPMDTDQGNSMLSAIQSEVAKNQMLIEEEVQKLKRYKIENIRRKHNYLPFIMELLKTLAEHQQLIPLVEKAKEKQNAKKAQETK
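Assay system: Proteasome-bound UCH37. Buffer or medium: pH 7.4 Tris-HCl (50 mM) with ovalbumin, ATP-MgCl2, DTT. Incubation: 30 min preincubation with enzyme, 25 min cleavage at room temperature. Measured by: fluorescence, ex 355 nm, em 460 nm. Read-out basis: percent inhibition. Control set: wells without proteasome as full block, compound-free enzyme plus substrate as uninhibited.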
B2AR ag – activates human beta-2 adrenergic receptor causing internalization. Am2.2-beta2AR cells, FAP receptor internalization, flow cytometry; reference of the scale not given here. actives 0.43% (n = 340,000). AID 504454. response, % (concentration not given with the values). P07550;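 active means response above a set limit, near 3 SD of response in nonfluorescent compounds, cut at about 42% in these data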;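 further: stock transfer was 100 nL into about 11 µL; a reference agonist was the positive control; negative values mostly stem from fluorescent compounds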
rRNA inh HTS OD600 – also measured in rRNA inh HTS; calls as there; OD600 change, %; measured here: OD600 growth;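 optical density of the mix in the first replicate; 0 = DMSO median and -100 = no signal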
rRNA inh HTS RFP – second read-out of rRNA inh HTS, no call of its own (marks repeat the call); RFP signal change, %; measured here: RFP humanized mutant strains;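 first replicate; 0 = DMSO median and -100 = no signal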
* hit, by the source's call; i = inactive; / = no result given. Not all compounds are listed; rates above refer to the full screens.

structure	ALR H2O2 inh	rRNA inh HTS	HNF4A DNA FP	rRNA inh HTS OD600	FGF22 binding	UCH37 inh	B2AR ag	rRNA inh HTS RFP	E coli growth
COC(=O)c1cccc(N(C(=O)c2cnccn2)C(C(=O)NC2CCCCC2)c2cn(C)nc2C)c1 (stereo not drawn)	-20	/	-1.7	/	/	5.5	-7	/	0.72
O=C(NCc1ccccc1)c1ccc(/C=N/O)nc1	-7	/	1.7	/	/	/	-1	/	/
CCOC(=O)c1cnc(-n2cc(C)cn2)nc1Nc1ccccc1OCC	-3	/	-5.5	/	/	2.6	34	/	0.69
N/C(=N\OC(=O)CC1CCCCC1)c1ccccc1	-2	8	2.4	0	i	3.6	11	-3.0	0.69
O=C(c1cc(S(=O)(=O)N2CCOCC2)ccc1F)N(CCc1ccccc1)Cc1ccccc1	-13	-9	-1.8	-21	i	0.0	5	-1.6	0.71
Cc1ccc2[nH]c3nc(SCC#N)nnc3c2c1	10	13	1.8	21	i	1.2	10	0.7	0.65
O=C(c1cccc(Cl)c1)N1CCN(c2ncccn2)CC1	-2	-3	-0.4	8	i	1.2	-1	11	0.71
O=C1OC(c2ccccc2)C(O)=C1c1ccccc1 (stereo not drawn)	/	0	2.2	7	i	0.5	-5	-1.2	0.64
CCOc1ccc(CNC(=O)CCCc2cn(C)c3ccccc23)cc1	17	-7	0.5	-5	i	1.9	2	-2.5	0.67
CCOc1ccc(OCC)c(NC(=O)CN2CCN(c3cccc(C)c3)C(C)C2)c1 (stereo not drawn)	-4	/	-0.9	/	/	2.2	-2	/	0.73
Cc1ccc(C2N(c3nccs3)C(=O)C3CCCN32)cc1 (stereo not drawn)	-4	/	2.0	/	/	1.9	-6	/	0.71
CC(=O)Nc1ccc(-c2nn[nH]n2)cc1	-7	8	0.3	6	i	-2.0	-2	1.5	0.7
CC(C)c1nn(-c2cc(C(F)(F)F)ccn2)c(=O)o1	-2	/	1.0	/	i	0.3	-9	/	0.59
O=C(CCC1CCCCC1)Nc1c[nH]c(=O)[nH]c1=O	-5	/	-3.3	/	/	5.5	-1	/	0.69
Cc1ccc(C)c2[nH]c(=O)c(CN(CCCN(C)C)C(=O)NCc3ccccc3)cc12	-16	/	-6.2	/	/	-2.0	-1	/	0.74
COc1ccc(OCC(=O)Nc2cccc3cccnc23)cc1	-6	/	0.5	/	/	1.9	-2	/	0.69
COc1cccc(NC(=O)N2C3CCCC2CC(NC(=O)C(C)(C)C)C3)c1 (stereo not drawn)	-7	5	2.7	-1	i	-1.2	5	3.5	0.69
CCOc1c(Br)cc(C(=O)OCC(=O)N2CCc3ccccc3C2)cc1OC	-4	-11	0.6	-35	i	2.2	0	2.5	0.71
COC(=O)Cc1[nH]nc2c1C1(C(=O)N(Cc3ccc(Cl)cc3)c3ccccc31)C(C#N)=C(N)O2 (stereo not drawn)	-11	/	-2.3	/	/	5.9	2	/	0.7
Cc1ccc(/C(O)=C2\C(=O)C(=O)N(CCCN3CCOCC3)C2c2ccccc2F)cc1 (stereo not drawn)	/	13	0.9	21	i	/	/	-1.2	/
O=C(Nc1cccc([N+](=O)[O-])c1)c1ccc2ccccc2c1O	/	7	-7.9	15	i	2.3	19	0.0	0.68
Cc1ccc(NS(=O)(=O)c2cn(C)cn2)cc1	0	/	-0.2	/	/	0.5	11	/	0.76
Cc1ccsc1C1CC(=O)NC2=C1C(=O)CC(C)(C)C2 (stereo not drawn)	1	/	2.5	/	/	-0.1	0	/	0.78
c1ccc2c(c1)[nH]c1c(N3CCSCC3)ncnc12	-4	/	-3.8	/	/	-16	8	/	0.65
CCC(C)c1ccc(NC(=S)N2CCN(C(=O)C3CCCO3)CC2)cc1 (stereo not drawn)	-6	-9	-2.4	-10	i	0.5	-4	3.2	0.69
Cn1c(=O)c2c(nc(N/N=C/c3cccs3)n2Cc2ccc(Br)cc2)n(C)c1=O	20	/	1.4	/	/	/	11	/	/
COc1cc(/C=N/Nc2nc(C)cc(C)n2)ccc1OC(=O)c1ccco1	35	/	-1.7	/	/	/	-4	/	/
O=C(O)c1cnn2c(C(F)(F)F)cc(-c3ccccc3)nc12	/	/	-1.4	/	/	1.0	8	/	0.72
Cc1cc(C)n2c(SCC(=O)Nc3ccc(F)cc3)nnc2n1	-2	-51	-1.3	-76	i	-8.1	-20	-30	0.65
COC(=O)C1(C)NC(c2ccc(F)cc2)C2C(=O)N(c3ccccc3)C(=O)C21 (stereo not drawn)	/	9	2.1	4	i	2.3	2	3.2	0.73
OC(CN1CCOCC1)Cn1c2c(c3ccccc31)CCCC2 (stereo not drawn)	26	0	3.3	-2	i	1.4	6	-0.7	0.62
Cn1c(Cn2c(=O)sc3ccccc32)nnc1SCC(=O)Nc1cccc(Cl)c1	-6	7	-3.1	10	i	-0.8	-15	-0.1	0.71
COc1ccc(-c2cc3nc4c(c(N5CCC6(CC5)OCCO6)n3n2)CCC4)cc1	24	5	-2.3	2	i	-3.3	1	-1.7	0.7
CCc1noc(C)c1C(=O)Nc1nc2ccc(S(C)(=O)=O)cc2s1	-6	-2	-0.5	1	i	5.7	-7	0.4	0.67
COc1ccc(Br)cc1C(=O)Nc1ccc(Cc2ccncc2)cc1	-2	/	-1.0	/	/	-8.1	-17	/	0.67
COc1ccc(S(=O)(=O)N/N=C\c2ccc3c(c2)OCO3)c(OC)c1	9	2	7.5	-16	i	/	-6	3.1	/
Cc1nc2ccccc2nc1OCC(=O)N1CCN(c2ccccc2)CC1	17	/	9.1	/	/	-3.6	-4	/	0.68
O=S1(=O)[C@H]2C[C@@H]3C=C[C@@]2(CN1Cc1ccccc1F)O3	11	8	-1.2	0	i	1.9	-15	0.3	0.8
CC(C)NC(=O)NC(=O)COC(=O)c1ccccc1O	0	-10	3.9	-8	i	-1.5	0	-9.3	0.67
CCN1CCN(C(=O)CN(CC)S(=O)(=O)c2ccc3ccccc3c2)CC1	/	-12	0.9	-12	i	2.0	3	-5.6	0.63
C#CC(CC)(CC)NC(=S)Nc1cccc(C(C)=O)c1	-1	/	2.7	/	/	0.2	-3	/	0.7
COc1ccc(NC(=O)CN(C)C(=O)/C=C/c2cn(-c3ccccc3)nc2-c2ccc(C)cc2)cc1	/	5	1.4	6	i	-3.6	6	-0.6	0.64
N#Cc1cccc(NC(=O)CC2CCCCC2)c1	-2	-1	-3.9	-7	i	1.2	-6	1.9	0.68
CCn1ncc([N+](=O)[O-])c1C(=O)N1CCc2ccccc2C1	-2	9	1.6	10	i	3.0	-4	0.5	0.66
Cc1cccc(Oc2ccc(NC(=O)c3ccccc3C(=O)O)cc2)c1C	71	-28	3.1	-31	i	1.8	17	-5.1	0.7
Cc1ccc(NC(=O)c2ncn(CCCN(CCCn3cnc(C(=O)Nc4ccc(C)c(C)c4)n3)Cc3ccc4[nH]ccc4c3)n2)cc1C	/	5	1.5	5	i	/	29	32	/
CCCOC1CCCN(C(=O)c2ccc(OC)c(OC3CCN(C(C)C)CC3)c2)C1 (stereo not drawn)	-12	8	-0.5	0	i	0.6	8	0.5	0.73
CC(=O)NC1CCN(CC(=O)Nc2nccs2)CC1	4	8	2.6	14	i	0.5	-1	0.5	0.66
COc1ccc(S(=O)(=O)N(C)CC(=O)N2CCN(Cc3ccccc3)CC2)cc1C	-8	/	-2.6	/	/	4.0	-1	/	0.74
CC1(Oc2ccc(CC#N)cc2)CCN(Cc2ccccc2OC(F)F)C1 (stereo not drawn)	/	5	2.8	5	i	/	/	-0.7	/
CC(C)(C)c1ccc(C(=O)Nc2nnc(Cc3c[nH]c4ccccc34)s2)cc1	2	/	0.5	/	/	1.0	2	/	0.73
Cn1nnc(NC(=O)COc2ccc(C3CCCCC3)cc2)n1	0	/	3.2	/	/	1.0	3	/	0.68
COc1ccc(CNC(=O)c2ccc(Br)s2)cc1OC	-23	-12	3.7	-12	i	3.3	1	-2.2	0.68
O=C1CCC(C(=O)Nc2cccc3ccccc23)N1 (stereo not drawn)	-23	/	8.6	/	/	0.5	-5	/	0.68
COC(=O)CSc1nnc(-c2cnccn2)n1C	-1	/	2.5	/	/	2.1	-5	/	0.73
CC(=O)N1C[C@@H](CO)[C@@H](N(C)C(=O)C(C)(C)C)C[C@H]1c1ccccc1	/	23	1.6	17	i	/	/	0.4	/
COc1ccc(N(CC(=O)N/N=C/c2cccc(OC)c2OC)S(=O)(=O)c2ccccc2)cc1	-4	-8	4.9	-21	i	/	3	0.7	/
COCCCNC(=O)C1Cc2cc(S(=O)(=O)N3CCCC3)ccc2N1C(C)=O (stereo not drawn)	1	14	3.1	7	i	5.0	2	1.8	0.67
COc1ccc(NC(=O)c2cc(S(=O)(=O)N3CCCC3)oc2C)cc1	3	8	6.2	8	i	5.5	-5	4.7	0.66
COC(=O)CCN(C(=O)c1ccc([N+](=O)[O-])cc1)c1ccccn1	-4	9	-4.0	8	i	3.4	10	-1.0	0.65

Retrieved by compound from the entries so far (two):
structure	ALR H2O2 inh	rRNA inh HTS	HNF4A DNA FP	rRNA inh HTS OD600	FGF22 binding	UCH37 inh	B2AR ag	rRNA inh HTS RFP	E coli growth
COC(=O)CSc1nnc(-c2cnccn2)n1C	-1	/	2.5	/	/	2.1	-5	/	0.73
CC(C)(C)c1ccc(C(=O)Nc2nnc(Cc3c[nH]c4ccccc34)s2)cc1	2	/	0.5	/	/	1.0	2	/	0.73

The listing continues.
structure	ALR H2O2 inh	rRNA inh HTS	HNF4A DNA FP	rRNA inh HTS OD600	FGF22 binding	UCH37 inh	B2AR ag	rRNA inh HTS RFP	E coli growth
O=c1nc2ccc(Cl)cn2c2ccc(S(=O)(=O)N3CCOCC3)cc12	-8	0	-0.4	1	i	i	-10	-1.3	0.65
CN(Cc1ccco1)C(=O)[C@H](Cc1ccccc1)NC(=O)CC[C@H]1O[C@@H](n2ccc(=O)[nH]c2=O)[C@H](O)[C@@H]1O	/	17	5.3	10	i	/	/	3.9	/
COc1cc(/C=N/n2c(-c3ccccc3)n[nH]c2=S)cc(OC)c1O	36	5	0.2	-4	i	/	12	2.2	/
COc1cc(C(=O)N2CCc3ccccc32)ccc1OCc1c(C)noc1C	-4	-5	-1.2	-10	i	4.9	3	-1.2	0.69
CCc1ccc(CC)c(S(=O)(=O)Nc2ccc(C(=O)O)c(O)c2)c1	-6	-19	-2.5	-29	/	2.6	6	0.2	0.71

Reformatted field by field: part of the list above.
> COc1cc(/C=N/n2c(-c3ccccc3)n[nH]c2=S)cc(OC)c1O
  ALR H2O2 inh: 36; rRNA inh HTS: 5; HNF4A DNA FP: 0.2; rRNA inh HTS OD600: -4; FGF22 binding: i; UCH37 inh: /; B2AR ag: 12; rRNA inh HTS RFP: 2.2; E coli growth: /

> COC(=O)C1(C)NC(c2ccc(F)cc2)C2C(=O)N(c3ccccc3)C(=O)C21 (stereo not drawn)
  ALR H2O2 inh: /; rRNA inh HTS: 9; HNF4A DNA FP: 2.1; rRNA inh HTS OD600: 4; FGF22 binding: i; UCH37 inh: 2.3; B2AR ag: 2; rRNA inh HTS RFP: 3.2; E coli growth: 0.73

> c1ccc2c(c1)[nH]c1c(N3CCSCC3)ncnc12
  ALR H2O2 inh: -4; rRNA inh HTS: /; HNF4A DNA FP: -3.8; rRNA inh HTS OD600: /; FGF22 binding: /; UCH37 inh: -16; B2AR ag: 8; rRNA inh HTS RFP: /; E coli growth: 0.65
